# NPYLR7 agonist = activates Aedes aegypti NPYLR7 receptor; 270,000 tested, 0.15% active; HEK293T NPYLR7/Galpha15, GCaMP6s calcium fluorescence; activation, % at 10 µM; AID 1259423; in the data active = activation above about 40%;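 also: 0% = vehicle and 100% = reference agonist at the receptor; some compounds past the cut are filed as inactive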
# NPYLR7 agonist max-min = also measured in NPYLR7 agonist; calls as there; activation, %; measured here: Max-Min RFU normalised activation; some inactives read as strong as hits;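 span of the calcium signal over five minutes; 0% = vehicle and 100% = native peptide agonist; compound fluorescence can raise it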
# Starred values were filed as active, the others as inactive; & = joins results of further samples. Only part of the results is shown (hit frequency here may not be typical).
SMILES,NPYLR7 agonist,NPYLR7 agonist max-min
Cc1cc(CN(C)CCC(O)c2ccccc2)no1 (stereo unspecified),-1,3
Cc1cc(C)n2ncc(CN3CCCC(Cn4ccnc4)C3)c2n1 (stereo unspecified),6,2
CCOC(=O)c1ccccc1NC(=O)N1CCc2ccccc2C1c1ccc(C)cc1 (stereo unspecified),19,9
C[C@@H]1CN(C(=O)CSc2ccc(C(F)(F)F)cn2)C[C@H](C)O1,-1,-5
CCOC(=O)CC1C(=O)NCCN1C(=O)CC1=C(C)/C(=C/c2ccc(S(C)=O)cc2)c2ccc(F)cc21 (stereo unspecified),-7,-13
CC(NC(=O)c1cc2ccsc2n1Cc1cccc(F)c1)c1ccccc1 (stereo unspecified),-3,4
COc1ccccc1Nc1nc(-c2cnc(N3CCN(C)CC3)nc2C)cc(=O)[nH]1,-1,-1
O=C(COC(=O)c1ccc(Br)cc1)NC(=O)NCc1ccccc1,-3,-3
CCN1C(=O)/C(=C\C=C2/C=Cc3ccccc3N2CC)N(c2ccccc2)C1=S,-1,-4
CCN1CC=C2C(C1)C(c1ccncc1)C(C#N)C(=N)C2(C#N)C#N (stereo unspecified),27,24
COc1cccc(C(=O)NCc2ccc(-c3ncc(-c4ccc(F)cc4)[nH]3)cc2)c1,-3,-11
CC(C)N(C)C(=O)C1CCN(Cc2nc3cc(Cl)ccc3s2)CC1,1,28
COc1cccc(Cn2ccnc2CN(CCN(C)C)S(=O)(=O)c2ccc(C)cc2)c1,4,6
S=c1[nH]nc2n1CCN2c1ccccc1,-4,-3
Nc1ncnc2nc(SCc3ccccc3)[nH]c12,-4,-8
CCN(CC)CCCC(C)NC(=O)c1cc(-c2ccc(OC)cc2OC)nn1-c1cc(C)ccc1C (stereo unspecified),-3,-2
CCOc1ccc(-c2cc(C(=O)OC)[nH]n2)cc1,5,4
O=C1CCCCCN1Cc1nc(Cc2ccccc2)n[nH]1,6,2
Cc1cc(Cl)cc(Cl)c1CNC(=O)C1CC2(CCNCC2)CN1 (stereo unspecified),8,1
C#CCOCC(O)CN(Cc1ccc2c(c1)OCO2)Cc1cc(C)ccc1C (stereo unspecified),23,11
C#CCN(CC#CC)C(=O)Nc1cccnc1OC,0,-2
CCc1nnsc1C(=O)N(C)CC(=O)Nc1ccccc1,-1,-2
COc1ccc(-n2c(SCc3ccccc3)nc3c(c2=O)SCC3)cc1OC,22,18
O=S1(=O)CCC(Nc2ccccc2)C1 (stereo unspecified),10&-2,14&21
O=C(NNc1nc2c(F)cccc2s1)c1cc(=O)c2ccccc2o1,2,-2
COc1cc(OC)c(NC(=O)CN2CCc3sccc3C2c2cccs2)cc1Cl (stereo unspecified),-6,-7
C=CCC(NC(C)=O)C(=O)N1CCCN(Cc2cnn(CC)c2)CC1 (stereo unspecified),-1,3
CCN(Cc1ccccc1)c1nc(-c2ccc(Oc3ccccc3)cc2)nc2ccccc12,1,-4
CCc1cc(Oc2cccc(OC)c2)nc(SCc2ccccc2C)n1,2,11
CCOC(=O)C1(CCc2ccccc2)CCN(C(=O)c2cc(C(F)(F)F)[nH]n2)CC1,32,33

# An excerpt of these results, with each value named.
COc1cc(OC)c(NC(=O)CN2CCc3sccc3C2c2cccs2)cc1Cl (stereo unspecified)
  NPYLR7 agonist: -6; NPYLR7 agonist max-min: -7
C=CCC(NC(C)=O)C(=O)N1CCCN(Cc2cnn(CC)c2)CC1 (stereo unspecified)
  NPYLR7 agonist: -1; NPYLR7 agonist max-min: 3
CCN(Cc1ccccc1)c1nc(-c2ccc(Oc3ccccc3)cc2)nc2ccccc12
  NPYLR7 agonist: 1; NPYLR7 agonist max-min: -4
CCc1cc(Oc2cccc(OC)c2)nc(SCc2ccccc2C)n1
  NPYLR7 agonist: 2; NPYLR7 agonist max-min: 11

# A second format for some results above.
structure	NPYLR7 agonist	NPYLR7 agonist max-min
Cc1cc(Cl)cc(Cl)c1CNC(=O)C1CC2(CCNCC2)CN1 (stereo unspecified)	8	1
C#CCOCC(O)CN(Cc1ccc2c(c1)OCO2)Cc1cc(C)ccc1C (stereo unspecified)	23	11
C#CCN(CC#CC)C(=O)Nc1cccnc1OC	0	-2
CCc1nnsc1C(=O)N(C)CC(=O)Nc1ccccc1	-1	-2

# The list continues.
SMILES,NPYLR7 agonist,NPYLR7 agonist max-min
Nc1cc(N2CCCCC2)nc(N2CCCCC2)n1,-1,-7
CN(Cc1ccccc1O)S(=O)(=O)CC1CCCCC1,7&9,6&8
CC1(C)CC1(CNC(=O)CCC(=O)NC1CCCC1)c1ccccc1 (stereo unspecified),-4,-12
O=[N+]([O-])C1=CC=C2C(=NC3(CCCCC3)N2O)C1=NC1CCCCC1,-10,-16
COc1nc(C)cc(C)c1CNC(=O)CCc1scnc1C,1,-3
CCCN(C(=O)c1oc2c(Cl)cccc2c1C)C1CCS(=O)(=O)C1 (stereo unspecified),8,4
Cc1nc(CN2CCN(S(C)(=O)=O)CC2)cs1,-3,-2
CCNC(=O)C(C1CCCC1)N1CCN(C(=O)c2ccc(-c3ccccc3)cc2)CC1 (stereo unspecified),-4,13
CCN(CC1CCOC1)C(=O)C1CCCCN1S(C)(=O)=O (stereo unspecified),6,4
CC(C)(C)c1csc(Nc2nc3cc4c(cc3s2)OCO4)n1,-5,-3
O=C(NCC(=O)N1CCOC(COc2ccc3c(c2)CCCC3)C1)c1ccco1 (stereo unspecified),7,6
Nc1ccc2oc(-c3ccc(F)cc3)nc2c1,4,3
Cc1c(N=Cc2cc(Br)ccc2O)c(=O)n(-c2ccccc2)n1C,14,4
O=C(NCC1CCCO1)c1ccc(-c2ccc(F)cc2)s1 (stereo unspecified),28,42
CCCCN(CCC(=O)NCCc1ccc(OC)c(OC)c1)c1nc(Cc2ccc(F)cc2)ns1,3,7
CCOc1ccc(C(=O)NCC(=O)NC2CCC(C)CC2)cc1OCC (stereo unspecified),-1,-3
CCS(=O)(=O)c1ccc(C(=O)N(C)c2cccc3ccccc23)cc1,7,5
CCOc1cc2c(cc1NC(=O)c1ccc[nH]c1=O)OC(C)C2 (stereo unspecified),6,6
O=C(/C=C/c1ccccc1)NCC1Cc2cc(F)cc(F)c2O1 (stereo unspecified),20,30
CC(C)N(CC(=O)Nc1cc(C(C)(C)C)nn1C)C(=O)C(Cl)c1ccccc1 (stereo unspecified),15,30
CC(C)Cn1c(C2CC(=O)N(c3ccc(F)cc3)C2)nc2ccccc21 (stereo unspecified),-3,-7
O=C(c1ccc([N+](=O)[O-])cc1Cl)N1CCc2nc(-c3ccccc3)nc(N3CCCCC3)c2C1,14,14
CC(C)CN1CCNC(=O)C1CC(=O)N1CCC(Cc2ccc(F)cc2)CC1 (stereo unspecified),2,-9
CC(C)(Cc1c[nH]c2ccccc12)NC(=O)c1ccc2c(c1)CCO2,-8,-20
Cc1csc(Cn2cc(CNC(=O)OCc3ccccc3)cn2)n1,4,-9
O=C(NC1CC1)c1nn(-c2cccc(C(F)(F)F)c2)c(=O)n(Cc2ccc(F)cc2)c1=O,1,2
O=C(Cc1ccccc1)N(Cc1cccnc1)c1nc2ccc(F)cc2s1,-14,-8
Cc1nn(-c2ccccc2)c(N)c1N=Nc1cccc(Cl)c1,2,3
CNC(=O)Cn1c(CO)cnc1SCc1ccc(Br)cc1,21,13
CC(C)N(Cc1c(-c2ccccc2)nn(C)c1Oc1ccc(F)cc1F)CC(O)c1ccccc1 (stereo unspecified),-10,-7
CC(=O)c1ccc(Sc2nnnn2-c2ccccc2)c([N+](=O)[O-])c1,1,0
CC(NC(=O)N1CCN(CC(=O)Nc2ccc(F)cc2)CC1)c1ccccc1Br (stereo unspecified),2,1
COc1ccc(-c2cc(C(=O)Nc3cccc(Cl)c3)c3ccccc3n2)cc1,-5,-8
C=CCCC(=O)N1CCC(c2nc(-c3ccc(Cl)cc3)no2)CC1,3,0
CN(CC(O)CO)C(=O)CC12CC3CC(CC(C3)C1)C2 (stereo unspecified),8,5
CCN(C)CCNC(=O)Nc1nc2c(COC)cccc2s1,9,8
Cc1cccc(-n2c(C)cc(C(=O)N3CCOCC3CC(O)c3ccco3)c2C)c1 (stereo unspecified),8,6
CCOC(=O)c1[nH]c(C)c(C(=O)CN(C(=O)CCC2CCCC2)C2CC2)c1C,-2,1
CC(C)C(CNC(=O)c1cccn(C)c1=O)N(C)C (stereo unspecified),0,0
O=Cc1c(N2CCCC2)nc2ccccn12,2,-1
O=C(NCc1ccccn1)c1cc(-c2ccc3c(c2)OCO3)nc2ccccc12,-8,-14
CCn1c(SCC(=O)N2C(C)CCCC2C)nnc1-c1ccccc1 (stereo unspecified),1,4
CC1CCCN(CCNS(=O)(=O)c2ccc3ccccc3c2)C1 (stereo unspecified),0,-2
Oc1cccc(Nc2nccc3[nH]c(-c4ccccc4)cc23)c1,-3,-14
CC(=O)CC(c1ccccc1)S(=O)(=O)c1ccccc1 (stereo unspecified),10,8

# Record cards, as listed above:
# Record of `COc1ccc(-c2cc(C(=O)Nc3cccc(Cl)c3)c3ccccc3n2)cc1` → NPYLR7 agonist: -5; NPYLR7 agonist max-min: -8
# Record of `Oc1cccc(Nc2nccc3[nH]c(-c4ccccc4)cc23)c1` → NPYLR7 agonist: -3; NPYLR7 agonist max-min: -14

# Additional results follow:
SMILES,NPYLR7 agonist,NPYLR7 agonist max-min
N#Cc1cccc(NC(=O)N2CCc3ccccc3C2c2ccccc2Cl)c1 (stereo unspecified),-1,9
CCC(C(=O)Nc1cc(C)nn1C(CC)CC)n1cccn1 (stereo unspecified),-2,19
Cn1nnc2c(SCC(N)=O)ncnc21,0,10
CN1C(=O)c2ccc(N3C(=O)c4ccc(Br)cc4C3=O)cc2C1=O,4,2
CCCCNC(=O)C1(C)CCN1C(=O)c1cc(F)ccc1C (stereo unspecified),3,0
CCNC(=O)C1Cc2ccccc2N1C(=O)c1ccco1 (stereo unspecified),13,14
CCc1nc2c(OCC(=O)N(C)C)cccn2c1N(C)C(=O)c1cccs1,9,0
O=C(/C=C/c1cccs1)N(Cc1cccnc1)c1nc2cc3c(cc2s1)OCO3,-12,-8
CCc1ncc(C(=O)NCC(c2ccc(C)o2)N2CCOCC2)cn1 (stereo unspecified),-8,-9
O=C(c1cccs1)N(Cc1cccnc1)c1nc2cc3c(cc2s1)OCCO3,-17,-11
COc1ccc(CCNc2ncc(C)c(-c3cnn(C)c3)n2)cc1OC,-2,-1
CN(C(=O)CSc1ccccc1C(=O)O)c1ccc([N+](=O)[O-])cc1,-2,-3
Cn1c(=O)[nH]c(=O)c2c1nc(NCCOCCO)n2Cc1ccccc1Cl,1,25
Cc1c(F)cccc1N1C(=O)CSC1c1cccc(NC(=O)COc2ccccc2)c1 (stereo unspecified),19,27
CCc1cc(CN(C)C(=O)c2c(-c3ccccc3)noc2C)on1,1,0
Cc1ccc(Cl)c2sc(N(CCCN(C)C)C(=O)c3ccno3)nc12,0,30
O=C(c1ccc2c(c1)OCCO2)C1CCN(C(=O)c2ccncc2)CC1,12,2
Cc1ccc(-c2cc(C(=O)N3CCN(C/C=C/c4ccccc4)CC3)n(-c3ccccc3)n2)cc1C,-5,-5
CCCCCN(C(=O)/C=C/c1ccccc1)C(CC)c1nc2ccccc2c(=O)n1-c1ccccc1OC (stereo unspecified),9,9
CC(C)N(Cc1cc(Cl)ccc1OS(=O)(=O)c1ccc(F)cc1)C(=O)c1cccc(F)c1,12,10
COc1ccc(NC(=O)c2cc(S(=O)(=O)N3CCCC3)cn2C)cc1OC,0,-4
COC(=O)C1CCN(c2ccc(Cl)nn2)CC1,-6,-1
CCC(=O)Nc1c(-c2cc(C)cc(C)c2)nc2cc(C)ccn12,4,2
Cc1ccc(CN(Cc2ccc3c(c2)OCO3)CC(O)COc2ccccc2)s1 (stereo unspecified),23,25
Cn1cccc1C=NNC(=O)CN1CCN(Cc2ccccc2)CC1,-2,-8
COc1cc(C[C@@H](CO)[C@H](CO)Cc2ccc(O)c(OC)c2)ccc1O,-7,-9
O=[N+]([O-])c1cc(C=Nc2cccc3nsnc23)c(O)c2ccccc12,-10,-17
COc1nc(-c2ccccc2C)n(-c2ccc(NC(=O)CSc3ccccc3)cc2)n1,24,28
CCCCN(C(=O)CCC(=O)O)c1c(N)n(CCC)c(=O)[nH]c1=O,4,11
COC(=O)C1=C(C)NC2=C(C(=O)CC(c3ccccc3)C2)C1c1cccc([N+](=O)[O-])c1 (stereo unspecified),1,0
COCC(=O)N(Cc1ccccc1OS(C)(=O)=O)C1CC1,25,25
CCC(=O)NS(=O)(=O)c1cccnc1Nc1ccc(Cl)c(C(F)(F)F)c1,-4,-5
COC(=O)c1ccc(OC(=O)c2cccc(S(=O)(=O)N3CCCc4ccccc43)c2)cc1,-7,-13
CC1=NOC(Cc2ccccc2)C(=O)N1C (stereo unspecified),4,-3
COc1ccc(OCCN2CCC(C(=O)NC(c3ccccn3)c3ccccc3OC)CC2)cc1 (stereo unspecified),3,2
Cc1ccc(S(=O)(=O)N=Cc2cccc([N+](=O)[O-])c2)cc1,-6,-7
O=C(Nc1nc(-c2ccc(Oc3ccccc3)cc2)cs1)c1ccco1,-3,-9
CN1c2ccccc2CC(C#N)(C#N)C12CCCCC2,23,19
CCOCCCNC(=O)c1cc(NC(=O)C(CC)c2ccccc2)ccc1N1CCN(c2ccccc2OC)CC1 (stereo unspecified),-6,-1

# Assay outcomes deposited in PubChem by Fisher Drug Discovery Resource Center.
